# StopGo FLuc: Primary qHTS Assay for Foot and Mouth Disease Virus Antivirals against NCGC Sytravon and CBC Compound Libraries: Firefly Luciferase Signal; HEK cells with a luciferase reporter of 2A StopGo recoding; Potency, µM (top dose mostly 57.5 µM), for the others: top-dose signal change, negative = less light; 120,000 compounds, 0.23% hits; active = well fitted falling curve with a large enough effect; inconclusive = small, poorly fitted or top-dose-only effect; inactive = no such curve, though single readings can be large or run the other way; also: nearly all actives have a fitted effect of over 60% in size; overnight with compound
# 2A Renilla: Primary qHTS Assay for Foot and Mouth Disease Virus Antivirals against NCGC Sytravon and CBC Compound Libraries: Renilla Luciferase Signal; HEK cells with a luciferase reporter of 2A StopGo recoding; Potency, µM (highest dose often 57.5 µM), for inactives: at the top dose signal change, negative = less light; 120,000 compounds, 0.32% hits; active means well fitted falling curve with a large enough effect; inconclusive means small, poorly fitted or top-dose-only effect; inactive means no such curve, though single readings can be large or run the other way; also: nearly all actives have a fitted effect of over 55% in size; overnight with compound
# Numbers without * were called inactive; ? = inconclusive; & = joins results of further samples; [ ] = dose if it differs, or a comment. % is scaled to controls: 0 for no effect and ±100 for the full control effect; potency is read from the fitted curve at half-maximal effect. Some of the compounds tested; the hit share may differ from the screen's.
# Results follow in this order: StopGo FLuc | 2A Renilla
CCc1ccc(Cl)c(CC)c1NC(=O)C1CC2CCC(C1)C21SCCS1 (centres undefined)
 : 3% | 8%
O=C(NCc1ccccc1)NCC1(c2ccccc2)CC1
 : 0% | 39%[activator]
COc1ccc(CNC(=O)CCCn2nc(C)c3sc4ccccc4c3c2=O)cc1OC
 : 0% | -7%
Cc1cc(-c2ccc(C)c(S(=O)(=O)NCc3cccc(Br)c3)c2)on1
 : -11% | 221%[activator]
COc1ccccc1CNC(=O)c1cc2c(s1)-c1ccccc1OC2
 : 149%[activator] | 46%[activator]
CC(C)c1cc(-c2nc(-c3ccc4c(c3)OCO4)no2)n[nH]1
 : 54%[activator] | 14%
CS(=O)(=O)N1CCN(C(C(=O)O)c2c[nH]c3cc(F)ccc23)CC1 (centres undefined)
 : -4% | -7%
Cc1[nH]c2ccccc2c1C(=O)CSc1ccc2c(c1)OCCCO2
 : 0% | 20%
CCOC(=O)c1noc2ncn(CC(=O)Nc3ccc(OC)c(Cl)c3)c(=O)c12
 : -8% | -11%
CC(C)c1ccc(NC(=O)C2Cc3ccccc3N2C(=O)c2ccccc2)cc1 (centres undefined)
 : 7% | 14%
CCCCN(CC)CCCNC(=O)c1c(C)oc2ncnc(N3CCOCC3)c12
 : -26% | -11%
Cc1nc2sccn2c(=O)c1S(=O)(=O)Nc1ccc(N2CCN(C(=O)C(C)C)CC2)cc1
 : 0% | 29%
CCN1CCSc2ccc(C(=O)NC(C)c3ccccc3)cc21 (centres undefined)
 : 0% | 51%[activator]
CCOc1ccccc1CNCCCSc1nnnn1C
 : 2% | -3%
Cc1ccc(C(=O)Nc2ccc3oc(=O)ccc3c2)cc1
 : 0% | 24%
O=C(CCCOC(=O)c1c(F)cccc1Cl)c1ccc(Br)cc1
 : 18% | 5%
CCCCCC1CCC(c2ccc(C(=O)CCN(C)C)cc2)CC1 (centres undefined)
 : -1% | 0%
CCNC(=O)NC(=O)C(C)OC(=O)c1cc(-c2ccco2)nc2ccccc12 (centres undefined)
 : 28% | 26%
Cc1ccc(CNC(=O)c2cc(-c3ccc(C)cc3)nc3n[nH]c(-c4ccc(F)cc4)c23)cc1
 : -8% | -4%
O=C(CC(c1cccs1)N1Cc2ccccc2C1=O)Nc1cccc(F)c1 (centres undefined)
 : 1% | 0%

# In the list so far, these contain bromine.
# Results follow in this order: StopGo FLuc | 2A Renilla
Cc1cc(-c2ccc(C)c(S(=O)(=O)NCc3cccc(Br)c3)c2)on1
 : -11% | 221%[activator]
O=C(CCCOC(=O)c1c(F)cccc1Cl)c1ccc(Br)cc1
 : 18% | 5%

# New compounds follow.
# Results follow in this order: StopGo FLuc | 2A Renilla
COc1cc(C(=O)NCC2CCCO2)cc(Cl)c1OCCC(C)C (centres undefined)
 : ? | 27%
CC(CCc1ccccc1)NC(=O)CC1CC2CCC1C2 (centres undefined)
 : 38%[activator] | 38%[activator]
COc1ccc(N2C(=O)c3ccccc3NC2c2cnn(-c3ccccc3)n2)cc1 (centres undefined)
 : 0% | 53%[activator]
CC(C)(C)c1ccc(C(=O)NC(CC(=O)O)c2ccc(C(C)(C)C)cc2)cc1 (centres undefined)
 : 58%[activator] | -11%[1.06 µM]
CCc1nnc(NS(=O)(=O)c2ccc(N)cc2)s1
 : -15%[11.5 µM] | 5%
COc1cccc2c1cc1c(=O)n(CC(=O)O)nc(C)n12
 : -7% | -6%
Cc1ccc(CCNC(=O)Cn2c(-c3cccs3)cc3ccccc32)cc1
 : -12% | -18%
O=C(CCn1c(=O)c2cccn2c2cccnc21)N1CCN(c2ccc(Cl)cc2)CC1
 : -19% | -11%
CCOC(=O)c1sc2ccccc2c1S(=O)(=O)N1CCN(c2cc(C)ccc2C)CC1
 : -17% | 35%[activator]
CCOCCn1c(SCC(=O)O)nc2c1c(=O)[nH]c(=O)n2C
 : 5% | -1%
O=C(NNC(=O)C1CCCc2ccccc21)c1ccc(F)cc1 (centres undefined)
 : 8% | -9%[1.06 µM]
CCCNc1c(NC(=O)c2cccc(C)c2)c(=O)oc2ccccc12
 : 19% | 20%
O=C(Nc1ccc(F)cc1F)c1cc(-c2ccc3c(c2)OCO3)on1
 : 20% | -5%
CCOc1nc2ccccc2nc1N1CCC(C(=O)Nc2ccc(C)c(Cl)c2)CC1
 : -6% | -3%
CCC(C(=O)NCCc1ccccc1)n1nc(C)c2sc3ccccc3c2c1=O (centres undefined)
 : -15% | 113%[activator]
CCN(C(=O)COC(=O)Cc1n[nH]c(=O)c2ccccc12)c1ccc(F)cc1
 : 9% | 5%
O=C1CCc2cc(OC(=O)c3ccc4c(c3)NC(=O)CS4)ccc2N1
 : -5% | -13%
O=Cc1cccn1-c1ccc(I)cc1
 : 46%[activator] | 8%
Cc1ccc(C(=O)N2CCN(c3nc4ccccc4o3)CC2)cc1
 : -18% | -28%
COC(=O)C1CN(Cc2ccc(OC)cc2)CCS(=O)(=O)N1Cc1cn(Cc2ccc(OC)cc2)nn1 (centres undefined)
 : -2% | 5%

# An excerpt of these results, field by field.
> O=Cc1cccn1-c1ccc(I)cc1
  StopGo FLuc: 46%[activator]	2A Renilla: 8%
> Cc1ccc(C(=O)N2CCN(c3nc4ccccc4o3)CC2)cc1
  StopGo FLuc: -18%	2A Renilla: -28%

# Shown with bars between the fields: 2 of the compounds above
Molecule | StopGo FLuc | 2A Renilla
O=Cc1cccn1-c1ccc(I)cc1 | 46%[activator] | 8%
COC(=O)C1CN(Cc2ccc(OC)cc2)CCS(=O)(=O)N1Cc1cn(Cc2ccc(OC)cc2)nn1 (centres undefined) | -2% | 5%

# Later entries
# Results follow in this order: StopGo FLuc | 2A Renilla
COc1cccc(CNC2CCCCCC2)c1OC
 : -7% | -10%
Cc1cc2oc(=O)cc(CN3CCN(c4ccccc4F)CC3)c2cc1O
 : -3% | -2%
Cc1ccccc1NC(=O)c1ccc2c(c1)CCCN2S(C)(=O)=O
 : 47%[activator] | ?
Cc1cc(NC(=O)CNc2cc(S(=O)(=O)N3CCOCC3)ccc2Oc2ccc(F)cc2)no1
 : -13% | -1%
N#C/C(=C\c1ccc(OCc2ccc(Cl)c(Cl)c2)cc1)C(=O)c1ccccc1
 : 210%[activator] | 1%
CCOc1ccc2nc(N3CCC(C(=O)Nc4ccc(Br)cc4F)CC3)sc2c1
 : 75%[activator] | -7%
Cc1cc(Oc2nc3ccccn3c(=O)c2/C=C(\C#N)c2nc3ccccc3s2)ccc1Cl
 : -15% | 0%
Clc1ccc(-n2ncc3c(NC4CCCCCC4)ncnc32)cc1
 : 81%[activator] | 10%
CC(C)n1nc(C(=O)Nc2cccc(C(F)(F)F)c2)c2ccccc2c1=O
 : 11% | 5%
CC1CCCN(c2cc3c(cc2F)c(=O)c(S(=O)(=O)c2cccc(Cl)c2)cn3C)C1 (centres undefined)
 : 4% | 1%
Cn1c(=O)[nH]c(=O)c2c1nc(NCCCO)n2CCOc1ccccc1
 : 21% | 14%
CSc1ccc(Cl)c(C(=O)OCC(=O)OC2CC(C)CCC2C(C)C)c1 (centres undefined)
 : 15% | 0%
N#Cc1nc(-c2ccc(F)cc2)oc1NCCc1ccccc1
 : 16% | 24%
Cc1nc2ccccc2c(C(=O)O)c1C
 : 11% | 10%
Cc1cccc(NC(=O)c2ccc3nc(C(C)C)oc3c2)c1C
 : -9% | 16%
Nc1ccc([N+](=O)[O-])c(C(F)(F)F)c1
 : 1%[11.5 µM] | -14%
C=C(C)Cn1c(N2CCC(C(N)=O)CC2)nc2c1c(=O)n(C)c(=O)n2C
 : -3% | -8%
COc1ccc(Nc2nc3c(S(=O)(=O)c4ccccc4)nnn3c3ccc(Cl)cc23)cc1OC
 : 2% | -8%
Cc1cccc(C)c1-n1ncc(C(=O)N2CCN(c3ccccn3)CC2)c1C1CCN(C(=O)OC(C)(C)C)CC1
 : -27% | -2%
COc1ccc(CN2CCc3nc(N4CCN(c5ccc(F)cc5)CC4)ncc3C2)c(OC)c1OC
 : ? | ?
COCCNC(=O)COC(=O)c1cc(-c2cccs2)nc2ccccc12
 : 19% | -4%
Cc1csc(NC(=O)CCNC(=O)c2ccsc2)n1
 : -10% | -13%
Cc1ccc(-n2ncc3c(N4CCCCC4)ncnc32)cc1
 : -108% | 14%
CCn1cc(CNC(=O)c2cc(-c3ccccc3)nc3ccccc23)cn1
 : 13% | 11%
CC1Oc2ccc(-c3csc(NC(=O)c4cccs4)n3)cc2NC1=O (centres undefined)
 : 5% | 0%
Cc1cc(/C=C/C(=O)c2ccc3ccccc3c2)c(C)s1
 : 30% | 7%
CCCNc1nc2ccccc2nc1C(=O)Nc1c(C)cccc1CC
 : 10% | 10%
CC(C(=O)Nc1ccc(OC(F)F)c(Cl)c1)n1cccn1 (centres undefined)
 : 29% | 6%
CN(CCCNC(=O)c1nc2ccccc2c(=O)[nH]1)C(=O)c1ccc2ccccc2c1
 : 56%[activator] | 7%
CC(=O)Nc1ccc(NC(=O)CCNS(=O)(=O)c2ccc3c(c2)CCN3C(=O)C2CC2)cc1
 : 0% | 3%
CC(=O)NC12CC3CC(C1)CC(C(=O)NCc1cccc(Cl)c1)(C3)C2
 : 14% | 9%
Cc1ccc(CC(=O)Nc2cnc3ccccc3c2)cc1
 : 0% | 20%
CCOC(=O)C1CCN(c2cc(C)nc3nc(Cc4ccc(Cl)cc4)nn23)CC1
 : 17% | 16%
CCCOc1c(CN)cccc1OC
 : -2% | -6%
CCOC(=O)c1sc2ncn(CC(=O)Nc3cc(Cl)ccc3C)c(=O)c2c1C
 : -1% | -5%
O=C(Nc1ccc(OC(F)(F)F)cc1)c1nc2ccccc2nc1N1CCCCC1
 : 9% | -6%
N#CC(C(=O)CSc1ccc2c(c1)OCCO2)c1nc(-c2ccccc2)cs1 (centres undefined)
 : 12% | -5%
CCOc1ccc(CNC(=O)C2CCCCN2S(=O)(=O)c2ccc(F)cc2)cc1OC (centres undefined)
 : -6% | -8%
CC(Nc1ccc(NC(=O)c2cccc[n+]2[O-])cc1)c1ccccc1 (centres undefined)
 : 145%[activator] | 9%
O=C(O)c1cc(-c2ccncc2)nc2ccccc12
 : 13% | 4%
CN1Cc2cc(C(=O)N3CCC(C4CCNCC4)CC3)ccc2NC(CC(=O)O)C1=O (centres undefined)
 : -14% | -10%
CCCCCCCCCCOC1CCS(=O)(=O)C1 (centres undefined)
 : 0% | -6%
O=CNNC(=S)NCc1ccccc1
 : 13% | 4%
CCOc1ccc(NC(=O)CSc2nc(-c3cccs3)cc(C(F)(F)F)c2C#N)cc1
 : -26% | -13%
COc1ccc(OCCOC(=O)c2[nH]c3c(c2C)C(=O)CCC3)cc1
 : ? | ?
Cc1ccc(NC(=O)C2CCC(C(C)(C)C)CC2)cc1 (centres undefined)
 : 0% | 2%
CCCn1c(C)c(C(=O)NC2CCCCC2)c2cc(OC)ccc21
 : -11% | -10%
CC(=O)N1CCc2cc(NC(=O)CNc3ccccc3OC(F)F)ccc21
 : 25% | 13%
Cc1ccc(NC(=O)CCOc2cc(C)ccc2C)c(Br)c1
 : 3% | -9%
COC(=O)c1ccccc1NC(=O)CN(c1ccccc1OC)S(C)(=O)=O
 : 3% | -2%

# The list goes on:
# Results follow in this order: StopGo FLuc | 2A Renilla
COc1ccc2c(C)c(CC(=O)NC3CC(C)(C)NC(C)(C)C3)c(=O)oc2c1OC
 : 3% | -2%
CCc1ccc(C(=O)OCC(=O)NC(=O)NC(C)C)cc1
 : -2% | 6%
CCCCCn1c(COc2ccc(C(C)(C)C)cc2)n[nH]c1=S
 : 21% | ?
COCCn1c(C)cc(C(=O)CSc2nnc(Nc3ccccc3F)s2)c1C
 : 89%[activator] | 13%
COC(=O)c1ccc(C2c3c(-c4ccccc4O)n[nH]c3C(=O)N2Cc2cccnc2)cc1 (centres undefined)
 : -4%&-10% | 9%&6%
COc1ccc2c(c1OC)C(=O)O[C@H]2[C@@H]1c2cc3c(cc2CCN1C)OCO3
 : -14% | 7%
Cc1c(F)cc(C(N)=O)cc1NS(=O)(=O)c1cccc(Cl)c1C
 : 10% | 165%[activator]
COc1cc(NC(=O)c2cc3nc(-c4ccc(C)cc4)cc(C(F)(F)F)n3n2)cc(OC)c1OC
 : -18% | -7%
COC(=O)c1ccc(COc2ccccc2)o1
 : 40%[activator] | -6%[1.06 µM]
O=C1/C(=C/c2ccc(Br)cc2)C(c2ccccc2)Oc2ccccc21 (centres undefined)
 : -3% | 2%
Cc1oc(-c2ccccc2)nc1C(=O)OCC(=O)N1CCC(C)CC1
 : 40%[activator] | -12%
Cc1ccc(CN(C)C(=O)Cn2c(Cl)nc3c2c(=O)n(C)c(=O)n3C)cc1
 : -12% | -9%
CCOc1ccc(-n2nc3ccc(NC(=O)c4cccc(F)c4)cc3n2)cc1
 : 3% | 7%
O=C(Cc1cc(Cl)c2c(c1)OCCO2)NC1CCN(CC(F)F)CC1
 : -1% | -8%
Cc1nc(Nc2ccc(Cl)cc2)cc(-c2ccccc2)n1
 : 127%[activator] | 19%
CC1(C)Cc2ccccc2C(CSc2nc3c(c(C(F)(F)F)n2)CC(C(C)(C)C)CC3)=N1 (centres undefined)
 : 0% | 0%
O=c1cc(N2CCN(c3ccc(F)cc3)CC2)[nH]c(=O)n1-c1cccc(Br)c1
 : 0% | 1%
COc1cccc(CNC(=O)CCn2cnc3ccccc3c2=O)c1
 : -5% | -9%
CCOC(=O)c1nnn(C(CC)C(=O)Nc2c(C)cccc2C)c1C(=O)OCC (centres undefined)
 : -6% | 13%
COc1ccc(CN2CCCC(C(=O)N3CCc4ccccc4C3)C2)cc1OC (centres undefined)
 : -2% | 1%
CCOc1ccccc1NC(=O)NCCn1c(=O)oc2ccc(C)cc21
 : 9%&-20% | 35%&3%[activator]
CC(=O)Nc1cccc(NC(=O)c2nc(-c3ccccc3)oc2C)c1
 : ? | ?
CC(=O)NC(=S)Nc1ccc(NC(=O)c2cccc(Cl)c2)cc1
 : 30%[activator] | 3%
